Bioassay records as filed in PubChem.
A647 autofl: compound autofluorescence in A647 spectral region; Compound fluorescence, A647 channel (570/671 nm), Tris buffer; max dye-equivalent concentration, M; 59,000 tested, under 10 active; AID 592; active means above 1 µM dye equivalent; inconclusive means 0.1 to 1 µM; inactive means 0.1 µM or less;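 also: values scaled relative to a standard on each plate; highest value over a series up to 38 µM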
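Tris 100 mM pH 8.0; cpd + A647 stds pin-transferred; 15 min RT; CCD imager, ex 570/em 671. Output = A647-equivalent conc. per cpd conc.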
AID923: qHTS Assay for Allosteric/Competitive Inhibitors of Caspase-1: Spectroscopic Profiling in AFC Spectral Region | Potency, µM (titrated, usually from 57.5 µM), without a hit: at the highest dose fluorescence increase, hits mostly activators | actives 1.1% (n = 75,000) | compound fluorescence, AFC spectral region (405/520 nm); almost no hit is shown here; active = well fitted activation curve with a large enough effect; inconclusive = small, poorly fitted or top-dose-only effect;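 also: potency is read from the fitted curve at half-maximal effect; 0% is about no effect; scaled to a free AFC standard on each plate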
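Baseline compound fluorescence (AFC region, 405 nm ex/520 nm em) taken from the intercept of kinetic reads with 50 nM caspase-1 and 5 uM Ac-WEHD-AFC; normalized to an on-plate AFC standard curve; compounds titrated up to 57 uM.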
A488 autofl: compound autofluorescence in A488 spectral region; compound autofluorescence, A488 spectral region, dye equivalency; hits give high values; max dye equivalency, M; actives 0.1% (n = 59,000); active = above 10 nM dye equivalent; inconclusive = 1 to 10 nM; inactive = 1 nM or less; about half of its hits are not listed in these tables;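 also: highest value over a series up to 38 µM; compound alone in buffer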
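Intrinsic compound fluorescence is measured in 100 mM Tris buffer at pH 8.0 following 15 min incubation at room temperature. Intensities at 480 nm excitation/540 nm emission are calibrated to an on-plate A488 concentration series, giving dye-equivalent concentrations.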
TSHR agonist: activates the human thyroid stimulating hormone receptor; Potency, µM (top dose mostly 57.1 µM), inactives show at the top dose activation, most hits filed as activators; AID 926; actives 0.48% (n = 73,000); HEK293-CNG-TSHR cells (CNG channel as cAMP sensor), membrane potential dye, cAMP; P16473; active = well fitted activation curve of enough size with the parental cells flat; inconclusive = any curve in the parental cells; inactive = parental cells flat and receptor cells flat or falling; also: potency is read from the fitted curve at half-maximal effect; % of control where 0% means no effect; weak receptor curves with flat parental cells got no call and are not listed
Target sequence (P16473 whole entry, looked up): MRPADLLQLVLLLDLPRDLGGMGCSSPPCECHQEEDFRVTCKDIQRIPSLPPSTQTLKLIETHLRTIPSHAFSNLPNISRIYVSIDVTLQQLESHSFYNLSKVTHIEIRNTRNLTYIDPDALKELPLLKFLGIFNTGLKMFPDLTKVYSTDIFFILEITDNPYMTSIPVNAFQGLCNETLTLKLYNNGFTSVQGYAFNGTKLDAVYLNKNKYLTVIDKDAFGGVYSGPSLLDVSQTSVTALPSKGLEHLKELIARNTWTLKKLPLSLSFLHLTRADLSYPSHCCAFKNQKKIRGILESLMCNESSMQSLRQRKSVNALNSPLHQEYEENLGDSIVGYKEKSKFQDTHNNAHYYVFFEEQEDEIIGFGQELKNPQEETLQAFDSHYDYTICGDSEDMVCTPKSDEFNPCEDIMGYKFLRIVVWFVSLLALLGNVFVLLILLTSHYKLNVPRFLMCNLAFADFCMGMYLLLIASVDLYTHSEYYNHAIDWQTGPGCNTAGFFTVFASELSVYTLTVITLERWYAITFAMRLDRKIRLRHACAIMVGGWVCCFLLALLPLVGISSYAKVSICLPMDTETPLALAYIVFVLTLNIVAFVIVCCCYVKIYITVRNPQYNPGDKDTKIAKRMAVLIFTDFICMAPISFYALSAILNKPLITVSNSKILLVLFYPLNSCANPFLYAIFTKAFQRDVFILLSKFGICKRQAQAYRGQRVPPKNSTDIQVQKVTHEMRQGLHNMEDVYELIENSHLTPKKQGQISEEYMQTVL
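HEK 293 cells stably expressing TSHR and a modified CNG channel, with CNG-only parental cells as counterscreen, were preloaded 60 min at room temperature with membrane potential dye containing 100 uM RO 20-1724. Compound exposure was 30 min, and depolarization was read as fluorescence at 590 nm.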
Resorufin fluor: compounds fluorescent in resorufin spectral region; Compound fluorescence, resorufin region 547/598 nm, buffer; hits give high values; max dye-equivalent concentration, M; actives 0.04% (n = 59,000); AID 588; active = above 10 nM dye equivalent; inconclusive = 1 to 10 nM; inactive = 1 nM or less; a few of its hits are not listed in these tables; also: highest value over a series up to 38 µM
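Compounds in 100 mM Tris buffer, pH 8.0, incubated 15 min at room temperature, then read with 547 nm excitation and 598 nm emission filters. Fluorescence was converted to dye-equivalent concentration using an on-plate six-point resorufin standard curve.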
Numbers without * were called inactive; i = inactive; ? = inconclusive; nt = not tested or not shown; [ ] = dose if it differs, or a comment. A portion of the library, so the mix of outcomes need not match the whole.

smiles,TSHR agonist,AID923,Resorufin fluor,A488 autofl,A647 autofl
CCN(C(=O)COc1ncnc2scc(-c3ccc(F)cc3)c12)C1CCS(=O)(=O)C1 (configuration not stated),-3%,-1.7%,i,i,3.8e-08
CC(Cc1cccs1)NC(=O)NC1CCCCC1 (configuration not stated),0%,-0.7%,i,i,1e-09
Cn1c(=O)c2c(nc(N3CCCCC3)n2CCSc2nc3ccccc3o2)n(C)c1=O,18%,0.6%,i,i,1e-09
CCc1ncc(C(=O)c2ccc(OC)cc2)n1C,-3%,3.7%,nt,nt,nt
CCOC(=O)N1CCN(C(=O)COc2ccccc2Cl)CC1,0%,3.3%,nt,nt,nt
CCOc1cccc(C2C(C#N)=C(N)Oc3cc(C)oc(=O)c32)c1OCC (configuration not stated),nt,nt,i,i,3.6e-08
CCCn1nnnc1SCC(=O)NCc1ccc(OC)cc1,9%,0.1%,i,i,1.8e-08
CCc1ccc(NC(=O)N(C2CCC(C)CC2)C2CCN(C(C)=O)CC2)cc1 (configuration not stated),5%,-0.2%,i,i,1e-09
CN(CC(=O)N1CCc2ccccc21)S(=O)(=O)c1ccc(Br)s1,?,1.5%,i,i,3.3e-08
O=c1[nH]c2ccsc2c(=O)n1-c1ccc(F)c(Cl)c1,-6%,-0.9%,i,i,2.9e-09

Whole records, quoted from the list. Order of values: TSHR agonist, AID923, Resorufin fluor, A488 autofl, A647 autofl
CCOC(=O)N1CCN(C(=O)COc2ccccc2Cl)CC1 reads 0%, 3.3%, nt, nt, nt
CCOc1cccc(C2C(C#N)=C(N)Oc3cc(C)oc(=O)c32)c1OCC (configuration not stated) reads nt, nt, i, i, 3.6e-08

Additional records follow.
smiles,TSHR agonist,AID923,Resorufin fluor,A488 autofl,A647 autofl
COc1ccccc1CNc1ncnc2ccc(-c3ccoc3)cc12,?,1.9%,i,i,1e-09
COC(=O)c1[nH]c2cccc(OC)c2c1NC(=O)CCN1CCC(C)CC1,3%,2.8%,i,i,1e-09
CCC1(C)Cc2c(sc3c2c(=O)n(C)c2nnc(SCC(=O)c4ccc(Cl)cc4)n32)CO1 (configuration not stated),nt,nt,i,i,1e-09
O=C(CC1(O)C(=O)Nc2cc(Cl)cc(Cl)c21)c1ccncc1 (configuration not stated),12%,0.8%,i,i,3.2e-08
CCOc1ccc(S(=O)(=O)NC(C)(C)C)cc1-c1nc2c(C(C)(C)C)nn(C)c2c(=O)[nH]1,nt,nt,i,i,4e-09
CC12C=CC3(O1)C(C(=O)N(c1cccnc1)C3C(=O)NC1CCCCC1)C2C(=O)Nc1ccccc1 (configuration not stated),2%,-0.6%,i,i,5.1e-08
COc1cccc(-n2c(COc3ccc(C)cc3)nnc2SCC(=O)O)c1,3%,-1.0%,i,i,4.7e-08
O=C(CN(CC1CCCO1)C(=O)CNS(=O)(=O)c1ccccc1)NCc1ccccc1 (configuration not stated),1%,0.0%,i,i,2.4e-09
O=S(=O)(c1cccc(-c2nnc(SCc3nc4ccccc4s3)o2)c1)N1CCOCC1,4%,9.3%,?,i,3.7e-09
Cn1c(=O)[nH]c(=O)c2c1nc(N1CCN(Cc3ccccc3)CC1)n2CCCc1ccccc1,12%,-0.4%,i,i,6.1e-09
COc1ccc(C)cc1S(=O)(=O)Nc1ccc(F)c(Cl)c1,-9%,-2.9%,i,i,1.4e-09
O=C(O)c1cccc(C(=O)Nc2cccc(NC(=O)C3CCCO3)c2)c1 (configuration not stated),1%,0.8%,i,i,1e-09
COc1ccccc1-c1cncnc1NCCc1cnc[nH]1,?,-1.1%,i,i,1e-09
CCOC(=O)C1=C(C)NC(C)=C(C(=O)OCC)C1C(=O)OCC(=O)N1CCC(C)CC1,-1%,2.5%,i,i,1e-09
Nc1nc(SCC(=O)N2CCCc3ccccc32)n(-c2ccccc2)n1,10%,-2.0%,nt,nt,nt
COC(=O)[C@H](C)[C@@H]1C[C@@]1(C)[C@@H](NC(=O)OCc1ccccc1)c1ccccc1,?,1.0%,nt,nt,nt
Cc1cccc(OCCCCCNCCO)c1,12%,2.1%,nt,nt,nt
O=C(Cn1cnc2c(oc3ccccc32)c1=O)NCC1CCCO1 (configuration not stated),1%,1.5%,i,i,1.2e-08
Cc1cnc(CNc2ncncc2-c2ccc(N(C)C)cc2)cn1,10%,1.1%,i,i,3.2e-09
COc1ccc(NC(=O)CC2Oc3ccc(C)cc3NC2=O)cc1 (configuration not stated),-26%,-1.2%,nt,nt,nt
COCCn1cnc2c(c1=O)c1nc3ccccc3nc1n2/N=C/c1cccc(OC)c1OC,-10%,-1.1%,i,i,1.8e-08
COc1cccc(NC(=O)c2cccc(OC)c2OC)c1,6%,-1.7%,i,i,1e-09
O=C(Nc1nnc(N2CCCCCC2)s1)c1cc(-c2ccc(Br)cc2)on1,-3%,1.7%,nt,nt,nt
Cc1ccc(N2OC3C(=O)NC(=O)C3C2c2ccco2)cc1 (configuration not stated),0%,0.7%,nt,nt,nt
COc1ccc(OC)c(C(=O)C2COC(=O)C2)c1 (configuration not stated),3%,1.6%,i,i,5.6e-08
Cc1c(NC(=O)c2cc(=O)[nH]c(=O)[nH]2)c(=O)n(-c2ccccc2)n1C,-11%,-1.3%,i,i,1e-09
CC(C)(C)n1ncc2c(=O)n(Cc3c(F)cccc3Cl)cnc21,?,-0.6%,i,i,2.7e-09
O=C(NCCO)c1ccc(Cl)cc1,-4%[11.4 µM],0.5%[11.5 µM],i,i,1e-09
COc1ccc(OCC(=O)Nc2cccc(-c3nc4ccccc4o3)c2)cc1,?,-0.4%,nt,nt,nt
CCOC(=O)CSc1ncnc2c1cnn2-c1ccc(Cl)cc1,17%,0.8%,i,i,2.4e-08
COC(=O)c1ccc(C2c3c(oc4ccccc4c3=O)C(=O)N2CCCN2CCOCC2)cc1 (configuration not stated),2%,-0.7%,nt,nt,nt
CCOc1ccc(Cn2nnc(C(=O)NCCc3ccccc3)c2N)cc1,-6%,2.2%,nt,nt,nt
O=C(COC(=O)c1ccc(N2CCCC2=O)cc1)NCc1ccco1,-3%,-1.6%,i,i,1e-09
Cc1ccc2[nH]c(=O)c3cc(C(=O)NCCN4CCN(C)CC4)sc3c2c1,-1%,0.0%,nt,nt,nt
Cn1c(CCNC(=O)c2ccc(F)cc2)nc2ccccc21,0%[11.4 µM],-1.0%,i,i,1e-09
COC(=O)c1ccc(CSc2nnnn2C)o1,17%,-0.2%,i,i,5.8e-09
CCCCN=c1sc(C(=O)OC)cc(=O)n1CCCC,4%,0.5%,i,i,9.2e-09
COCCNc1cc(-c2c(C)noc2C)ncn1,2%,4.2%,i,i,4.1e-08
CCOC(=O)c1sc(NC(=O)C2CC2)cc1C,-13%,1.5%,nt,nt,nt
CCN1CCN(C(CNC(=O)c2ccc3c(c2)OCO3)c2cccnc2)CC1 (configuration not stated),-4%,-3.3%,nt,nt,nt

A few values from the entries so far.
CC(C)(C)n1ncc2c(=O)n(Cc3c(F)cccc3Cl)cnc21 in A647 autofl is listed with 2.7e-09
O=C(NCCO)c1ccc(Cl)cc1 in A647 autofl is listed with 1e-09

(more compounds)
smiles,TSHR agonist,AID923,Resorufin fluor,A488 autofl,A647 autofl
COC(=O)CSc1nc2sc3c(c2c(=O)n1-c1ccccc1)CCN(C)C3,?,15%,i,i,2.8e-09
CCSC1(SCC)N=C(N)C2(C#N)C(c3ccccc3)NC3=C(CCC3)C12C#N (configuration not stated),-7%,3.2%,i,i,4.8e-09
CC(C)CCn1c(SCc2ccc(Cl)cc2)nc2c1c(=O)[nH]c(=O)n2C,?,-1.4%,i,i,2.1e-09
COc1ccc(OC)c(S(=O)(=O)NCc2ccccc2)c1,6%,5.9%,i,i,1.5e-08
O=C(Nc1c(C(=O)O)oc2ccc(Br)cc12)c1ccccc1,-1%,-1.1%,nt,nt,nt
CCOc1ncccc1C(=O)Nc1ccccc1C(=O)NCc1ccc2c(c1)OCO2,?,-2.4%,i,i,1.2e-08
CCCCS/C(=C(/C#N)C(N)=O)c1cc2c([nH]1)CCCC2,?,-5.8%,i,i,1.3e-08
Cc1ccc(-n2ncc3c(=O)n(CC(=O)OCc4ccccc4)cnc32)cc1,?,-0.7%,i,i,5e-09
CC1CCN(CC[C@@H]2CCCN2S(=O)(=O)c2cccc(O)c2)CC1,15%,-2.4%,i,i,3.2e-08
O=C(c1cc(-c2ccccc2)on1)N1CCCC1,-4%,-1.4%,i,i,5.5e-09
O=C(CCC1CCCC1)N1CCN(S(=O)(=O)Cc2ccccc2)CC1,10%,0.1%,nt,nt,nt
CC1(CC(=O)O)C(=O)N=C2C=CC=CN21 (configuration not stated),0%,-2.3%,i,i,1e-09
CN(C)CC(C(=O)c1ccccc1)c1ccccc1 (configuration not stated),6%,1.0%,i,i,2.6e-08
CCCCn1c(CN2CCOCC2)nc2c1c(=O)n(C)c(=O)n2C,4%,5.8%,nt,nt,nt
Cc1ccc(-c2nnn(CC(=O)N(c3cccc(O)c3)C(C(=O)NC(C)(C)C)c3cccs3)n2)o1 (configuration not stated),2%,-1.2%,i,i,2e-08
N#CC1=C2SCN(c3ccccc3)CN2C(=O)CC1c1cccs1 (configuration not stated),3%,2.3%,i,i,9.7e-09
COC(=O)c1cn(NC(=O)c2cccc(N(C)C)c2)c(=O)c2ccccc12,11%,1.8%,i,i,4e-09
O=C(NCCCN1CCOCC1)c1cc(-c2ccccc2)on1,2%,-1.5%,i,i,5.4e-09
COc1ccccc1-c1cc(C(=O)N2CCCCC2)no1,10%,-4.2%,nt,nt,nt
COc1ccccc1NC(=O)CSc1nnc(CNC(=O)c2ccco2)o1,-3%[11.4 µM],-0.9%,i,i,1.6e-08
CCOC(=O)c1cc(-c2cccnc2)nn1-c1ccccn1,0%,-0.4%,i,i,5.8e-09
O=C(CCN1CCOCC1)Nc1cccc(Br)c1,5%,-1.5%,i,i,3e-08
O=C(COc1ccc(Br)cc1CO)Nc1ccccc1F,8%,1.1%,i,i,1.9e-08
CCC(O)CNc1nc(SC)nc2sc3c(c12)CCN(C)C3 (configuration not stated),17%,-0.4%,i,i,8e-09
Cc1nnc(SCC(=O)N2CC(=O)Nc3ccccc32)n1-c1ccccc1,1%,-1.0%,i,i,1.2e-08
CCOc1cc(N2CCOCC2)c(OCC)cc1NC(=O)c1ccc(=O)n(Cc2ccccc2)n1,-8%,-1.2%,i,i,1e-09
CCOCCc1nnc(NC(=O)COC)s1,4%,-2.2%,i,i,5.4e-08
CCOC(=O)N1CCN(c2c(N3CCN(c4ccccc4OC)CC3)c(=O)c2=O)CC1,-10%,-1.5%,nt,nt,nt
CC(C)CC(C(=O)Nc1ccc2c(c1)OCCO2)N1C(=O)c2ccccc2C1=O (configuration not stated),?,2.0%,i,i,2.2e-09
Nc1[nH]nc2nc(N3CCOCC3)nc(-c3ccccc3)c12,-3%,1.7%,i,i,1e-09
Cc1cccc(O)c1C,-7%,-2.8%,nt,nt,nt
c1ccc(-c2ccc(-c3ccccn3)nn2)nc1,7%,-0.8%,i,i,1.1e-08
O=S(=O)(c1ccccc1)N1CCC2(CCCN(Cc3ccccc3)C2)CC1,?,0.0%,i,i,1e-09
